TRPML1 agonist = qHTS for Agonists of the Human Mucolipin Transient Receptor Potential 1 (TRPML1). AID 624414, 2012. TRPML1-expressing cells, Ca2+ dye fluorescence, FDSS; host cell line not named in the record; reference of the full effect not given here. Mucolipin-1 (Homo sapiens), Q9GZU1. activation, % (concentration not given with the values). 410,000 compounds, 0.12% hits; in the data active = activation above about 50%; inconclusive = about 30% to 50%; inactive = below about 30%; note: 0% is about no effect; the text of the record puts the active cut at 80%
Target sequence (Q9GZU1 whole entry, looked up): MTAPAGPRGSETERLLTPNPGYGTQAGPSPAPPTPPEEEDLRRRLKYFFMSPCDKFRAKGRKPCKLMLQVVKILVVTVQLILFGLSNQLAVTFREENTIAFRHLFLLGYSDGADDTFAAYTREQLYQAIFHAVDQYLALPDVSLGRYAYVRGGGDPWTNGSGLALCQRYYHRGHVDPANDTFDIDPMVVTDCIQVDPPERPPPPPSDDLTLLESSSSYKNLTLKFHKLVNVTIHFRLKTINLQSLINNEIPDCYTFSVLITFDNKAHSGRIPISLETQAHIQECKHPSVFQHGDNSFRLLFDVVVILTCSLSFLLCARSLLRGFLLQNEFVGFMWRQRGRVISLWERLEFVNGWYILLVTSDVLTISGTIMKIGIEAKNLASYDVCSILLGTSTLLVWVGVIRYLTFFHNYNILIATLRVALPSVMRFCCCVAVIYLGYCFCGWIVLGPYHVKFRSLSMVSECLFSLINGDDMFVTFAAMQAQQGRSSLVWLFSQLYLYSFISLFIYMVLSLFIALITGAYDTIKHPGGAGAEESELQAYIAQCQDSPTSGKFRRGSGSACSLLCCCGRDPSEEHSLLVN
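In this qHTS format, compounds were pin-transferred onto Ca8-dye-loaded TRPML1-DL cells induced with Tet overnight, and intracellular Ca2+ fluorescence was recorded kinetically for 110 s after a 10 s baseline. A subsequent 4uM final 54-4 (EC80) addition followed by a second 110 s read served as the antagonist phase.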
ClpP mod = qHTS Assay for Activators of ClpP. ATP-dependent Clp protease proteolytic subunit (Bacillus subtilis (strain 168)), P80244. purified B. subtilis ClpP, FRET peptide cleavage, 20 min. Potency, µM (top dose mostly 57.5 µM), without a hit: at the top dose activity change, negative = active. 340,000 compounds, 1.9% hits. AID 651965, 2013; active = well fitted falling curve with a large enough effect; inconclusive = small, poorly fitted or top-dose-only effect; inactive = no such curve, though single readings can be large or run the other way; note: potency is the fitted concentration of half-maximal effect; the source files actives as falling curves though it sought activators and does not explain the sign; nearly all actives have a fitted effect of over 65% in size; many hits overshoot -100%
Target sequence (P80244 whole entry, looked up): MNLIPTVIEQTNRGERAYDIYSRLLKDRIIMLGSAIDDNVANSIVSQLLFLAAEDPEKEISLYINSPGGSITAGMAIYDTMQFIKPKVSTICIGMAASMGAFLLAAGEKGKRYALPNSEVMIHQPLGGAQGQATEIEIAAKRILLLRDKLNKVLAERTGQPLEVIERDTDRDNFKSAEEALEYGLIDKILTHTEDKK
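ClpP 10 microg/mL final, pH 8 Tris/KCl buffer with BSA, glycerol, Tween-20; compound pinned in; FRET-FV substrate; RT 20 min; Ex320/Em430; ΔFRET vs ADEP 5.8 microM, DMSO, no enzyme.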
TRPML1 blocker = qHTS for Inhibitors of the Human Mucolipin Transient Receptor Potential 1 (TRPML1). Mucolipin-1 (Homo sapiens), Q9GZU1. TRPML1-inducible cells, Ca2+ dye fluorescence, FDSS; stronger effect = lower value; inhibition of EC80 agonist-evoked calcium signal. activity change, negative = inhibition, % (test concentration not listed). 390,000 compounds, 0.02% hits. AID 624415, 2012; in the data active means activity change below about -50%; inconclusive means about -30% to -50%; inactive means above about -30%;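 note: stimulus is agonist 54-4 at its EC80 concentration; % is set by controls: 0 for no effect and ±100 for the full control effect; compound concentration not given in the record; the text of the record puts the active cut at -80%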
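Tet-induced TRPML1-DL cells loaded with Ca8 no-wash calcium dye were read kinetically on FDSS. Compound addition was followed by EC80 agonist 54-4 (4 uM final); inhibition was read over 110 s.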
gsp ag = qHTS for Agonist of gsp, the Etiologic Mutation Responsible for Fibrous Dysplasia/McCune-Albright Syndrome: qHTS | gsp mutant cells, cAMP HTRF, 30 min; control for the full effect not named in the record | Potency, µM (doses to about 76.9 µM), without a hit: at the top dose activation (cAMP increase), most hits filed as activators | 340,000 compounds, 0.13% hits | AID 624287, 2012; active = well fitted activation curve with a large enough effect; inconclusive = small, poorly fitted or top-dose-only effect, or another doubt; inactive = no such curve, though single readings can be large or run the other way; cell line not stated here;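 note: phosphodiesterase inhibitor Ro 20-1724 added with compounds to block cAMP breakdown; potency is the fitted concentration of half-maximal effect; nearly all actives have a fitted effect of over 60% in size; about a fifth of the inactives were tested at one dose only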
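Cells stably selected in G418 were plated at 2000/well, grown 16-24 hr, then given compounds in DMSO with the PDE inhibitor […] (300 uM solution added) for 30 min at 37C; cAMP was read by HTRF.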
gsp antagonist = qHTS for Antagonists of gsp, the Etiologic Mutation Responsible for Fibrous Dysplasia/McCune-Albright Syndrome: qHTS; gsp-mutant cells, cAMP HTRF, 30 min; control for the full effect not named in the record; Potency, µM (top dose mostly 76.9 µM), without a hit: at the top dose activity change, negative = inhibition, usual class: inhibitors; 340,000 compounds, 0.4% hits; active = falling curve of any shape with a large fitted effect; inconclusive = falling curve, mostly with a smaller effect; inactive = flat or rising curve; cell line not stated here;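 note: intracellular cAMP measured with PDE inhibitor Ro 20-1724 present during compound exposure; potency is the fitted concentration of half-maximal effect; % is set by controls: 0 for no effect and ±100 for the full control effect; nearly all actives have a fitted effect of over 65% in size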
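Cells, 2000/well, grown 16–24 h in DMEM 10% FBS with 0.5 mg/ml G418, then compounds plus […] (300 uM addition stock), 30 min at 37C. cAMP read by HTRF (cAMP-d2 and anti-cAMP antibody-K in lysis buffer) after 30 min RT.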
Menin-MLL FL inh = qHTS Assay for Inhibitors Targeting the Menin-MLL Interaction in MLL Related Leukemias: Competition With Fluorescein Labeled MLL-derived Peptide. Fluorescence polarization, fluorescein-MLL peptide displacement from menin. FP activity change, % at 61.4 µM. 290,000 tested, under 10 active; inconclusive = falling polarisation curve, or a change in total fluorescence; inactive = total fluorescence flat and polarisation flat or rising; no compound was filed as active; the % refers to the polarisation; negative = inhibition;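 note: % of control where 0% means no effect; inhibitors lower the polarisation; unlabelled MLL peptide was the positive control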
The depositor's hits bear a star; ? = inconclusive; . = no result given; [ ] = remark or other dose. Random draw from the library. About 2.1% of those tested had a hit in this group.

SMILES	TRPML1 agonist	ClpP mod	TRPML1 blocker	gsp ag	gsp antagonist	Menin-MLL FL inh
O=C(c1ccccc1F)N(Cc1ccc(F)cc1)C1CCS(=O)(=O)C1 (configuration not stated)	-0.3	-1.2%	15.6	-76.7%[inhibitor]	3.8%	1.2
Cc1c(CC(=O)NCCc2ccccc2F)c(=O)oc2cc(O)c(Cl)cc12	-1.1	4.0%	14.5	.	.	.
CS(=O)(=O)Nc1ccc(C2=NN(C(=O)c3cccc(F)c3)C(c3cccs3)C2)cc1 (configuration not stated)	1.7	-3.8%	-6.0	2.7%	?	2.8
CCOC(=O)c1c(C)[nH]c(CCC(=O)NCc2cccc(C)c2)c1C	3.3	0.7%	10.3	.	.	.
C/C=C/Cn1c(SCCCc2ccccc2)nc2c1c(=O)[nH]c(=O)n2C	3.2	1.7%	-0.5	29.6%	4.3%	1.6
CCN1CCN(C(=O)/C(=C/c2ccco2)NC(=O)c2ccccc2)CC1	-0.7	-1.2%	18.5	-5.1%[15.4 µM]	11.3%	-3.8
CCn1c(C(=O)NCCc2ccc(S(N)(=O)=O)cc2)cc2sc(Cl)cc21	-0.8	-23.8%	-3.8	.	.	.
COc1ccc(C(=O)NC2CCN(CC(=O)Nc3c(C)cccc3C)CC2)cc1OC	-0.6	-12.8%	-20.6	-10.0%[15.4 µM]	-1.6%	-0.2
CCCNC(=O)c1ccc(CNc2c(N3CCC(C(=O)OCC)CC3)c(=O)c2=O)cc1	0.4	-0.6%	41.2	-3.2%	6.0%	-0.3
Cc1ccc(C)c(-n2c(-c3ccc(Br)cc3)csc2=NC(=O)c2ccccc2F)c1	5.8	3.6%	-1.5	?	-6.0%	3.8
O=C(c1cc(Br)c[nH]1)N1CCSCC1	-0.4	.	7.9	20.0%[15.4 µM]	9.3%	-1.9
CC(=O)N1CCc2c(sc3c2c(=O)n(-c2ccccc2)c(=O)n3CC(=O)c2ccc(F)cc2)C1	-1.1	2.0%	6.2	.	.	.
O=C(CN(Cc1ccco1)C(=O)CNS(=O)(=O)c1ccc(F)cc1)NCc1ccc(F)cc1	-0.2	-2.2%	19.2	7.0%	3.9%	-1.6
COC(=O)c1cc(OC)c(OC)c(OC)c1NC(=O)c1ccc(S(=O)(=O)N(C)C)cc1	0.0	0.4%	-1.3	-32.7%[inhibitor]	9.9%	-0.6
CCN(CC)CCNC(=O)c1ccc2c(c1)N(Cc1ccccc1)C(=O)c1ccccc1S2=O (configuration not stated)	2.1	-1.1%	4.7	.	.	.
CCOC(=O)c1nn(-c2ccccc2)c(=O)cc1SC(C)C	-0.4	0.3%	5.7	4.6%	2.6%	9.7
COc1ccc(CCNC(=O)Cn2cnc3scc(-c4ccccc4)c3c2=O)cc1OC	0.5	-0.6%	-6.0	-30.3%[inhibitor]	7.4%	-4.1
CCOc1ccc(N(C)S(=O)(=O)c2ccc3[nH]cc(C(=O)NCCCOC)c(=O)c3c2)cc1	-0.1	?	6.7	-3.4%	-23.6%	0.0
Cc1ccc(OCC(=O)Nc2c(C)ccc3nsnc23)cc1	0.4	-4.4%	-12.3	-47.1%[inhibitor]	1.5%	.
CCC(C)(C)NC(=O)C(c1ccc(C)o1)N(Cc1ccc2c(c1)OCO2)C(=O)c1snc(C(N)=O)c1N (configuration not stated)	0.6	.	-3.7	-4.3%[15.4 µM]	-2.8%	3.6
Cc1ccc(NC(=O)CCSc2nc(-c3ccco3)cc(C(F)(F)F)n2)cc1F	2.3	-22.4%	-9.9	.	.	.
O=C(Nc1cccc(NC(=O)c2cccs2)c1)c1ccc(Br)o1	-0.9	-2.8%	-5.4	7.9%[15.4 µM]	-13.2%	0.2
COc1ccc(-c2nsc(NC(=O)c3oc4ccc(Cl)cc4c3C)n2)cc1	0.4	1.7%	-6.5	.	.	.
COC(=O)c1sc(S(=O)(=O)N2CC(C)OC(C)C2)c(C(=O)OC)c1C (configuration not stated)	0.3	1.4%	-1.9	-22.2%	3.7%	.
O=c1[nH]c(N2CCc3ccccc32)nc2c1CCCC2	-0.3	-16.5%	-14.5	5.9%	2.1%	0.8
Next compounds.
SMILES	TRPML1 agonist	ClpP mod	TRPML1 blocker	gsp ag	gsp antagonist	Menin-MLL FL inh
COC(=O)c1cc(S(=O)(=O)N2CCCCC2)c[nH]1	1.6	-0.5%	3.1	11.4%	2.2%	2.5
CCOC(=O)c1ccccc1NC(=O)COc1ccccc1-c1nnc(-c2ccccc2)o1	1.4	4.2%	48.9	.	.	.
Cc1cc(C)n2nc(SC3CCCCN(C(=O)c4ccc(F)cc4)C3=O)nc2n1 (configuration not stated)	-0.8	-0.8%	-9.5	10.8%	8.1%	4.1
CCOC(=O)c1c2c([nH]c(=S)c1C#N)CCCC2	0.0	0.9%	-1.6	4.1%[15.4 µM]	0.4%	-0.6
Cc1cccc(-n2c(=O)[nH]c3c(C(N)=O)nc(CC(C)C)nc32)c1	-1.0	10µM*	-6.3	18.2%	2.7%	2.0
C/C(O)=c1/ccc2cccc3nc(C)nc1c23	8.8	0.3%	13.0	3.4%	-3.8%	?
O=c1[nH]cnc2scc(-c3ccc(Br)cc3)c12	0.6	.	-0.2	4.5%	-3.4%	0.6
O=C(N=C1SC2CS(=O)(=O)CC2N1Cc1ccccc1)C1CCCO1 (configuration not stated)	-0.2	0.1%	-1.4	?	20.6%	0.6
CCNc1nc(OC)nc(Oc2ccc(C(=O)OC)cc2)n1	-1.1	0.9%	3.0	-42.0%[inhibitor]	3.0%	3.4
COc1cccc(CNc2ccc3[nH]c(=O)[nH]c3c2)c1OCc1ccccc1	-0.6	-0.5%	-0.9	10.7%[15.4 µM]	-9.4%	-2.3
CCn1cc(C(=O)NCC(OC)OC)c(=O)c2cc(S(=O)(=O)N3CCC(C)CC3)ccc21	2.3	-1.9%	7.0	9.9%	-1.5%	-1.6
O=C(NCc1cccs1)C1CCCN(c2ncccn2)C1 (configuration not stated)	-0.7	?	-0.6	-28.8%	5.3%	7.2
CN1CCN(S(=O)(=O)c2cccc3nsnc23)CC1	1.0	.	-17.6	8.6%	5.1%	-2.2
COCCN(C(=O)COC(=O)CCC(=O)c1cccs1)c1c(N)n(Cc2ccccc2)c(=O)[nH]c1=O	-0.2	4.0%	-0.9	24.0%	2.5%	.
Fc1ccc(N2CCN(Cc3nnc(-c4ccccc4Cl)o3)CC2)cc1	0.5	-2.9%	8.9	.	.	.
CC1CCN(c2oc(-c3cccs3)nc2S(=O)(=O)c2ccc(Cl)cc2)CC1	0.4	-21.9%	8.6	.	.	.
Cc1nc(SCC(O)CO)c([N+](=O)[O-])[nH]1 (configuration not stated)	1.0	0.6%	-16.2	16.3%	13.2%	1.1
O=S(=O)(c1ccc2c(c1)OCCO2)N1CCN(Cc2ccc3c(c2)OCO3)CC1	0.0	-4.4%	-6.8	-7.7%	5.2%	2.0
O=C(Cc1ccc(Cl)cc1)Nc1ncccn1	0.1	-1.2%	-5.7	-43.7%[inhibitor]	4.3%	0.3
COc1ccc(NS(=O)(=O)c2ccc3oc(SCc4ccc(F)cc4)nc3c2)cc1	2.1	2.3%	21.3	5.6%	-7.4%	-1.1
Cc1cc(CNC(=O)COc2ccc(F)cc2)c2ccccc2n1	-1.4	0.0%	-4.4	-31.0%[inhibitor]	-4.7%	1.1
CC1CCN(C(=O)Cn2nnc(-c3ccccc3)n2)CC1	.	-2.0%	.	-26.3%	4.4%	-3.2
CCc1ccc(-n2nc3cc(C)c(NC(=O)c4cc(OC)cc(OC)c4)cc3n2)cc1	1.1	-16.4%	2.4	.	.	.
CN(C(=O)c1ccoc1)c1ccccc1I	0.7	.	9.4	.	.	-4.8
Cc1ccc(S(=O)(=O)N2CCN(Cc3ccccc3)CC2)c(C)c1N(C)S(=O)(=O)c1ccccc1	0.0	2.3%	-18.6	18.1%	-4.9%	0.2
The list continues.
SMILES	TRPML1 agonist	ClpP mod	TRPML1 blocker	gsp ag	gsp antagonist	Menin-MLL FL inh
O=C(N/N=C/c1cc(Cl)c(O)c(Cl)c1)c1cc2c(ccc3ccccc32)o1	0.0	?	-5.7	?	31.6µM*	-1.5
O=C(c1ccc(F)cc1)N1CCN(C2CC3CCC2C3)CC1 (configuration not stated)	0.3	-1.5%	32.8	6.8%	13.2%	-2.3
COc1ccccc1NC(=O)c1cc(Cl)nnc1Cl	0.0	.	-2.0	-2.0%	8.0%	-0.5
CC(C)/C=C/CN1CCCC(N2CCN(c3cccc(Cl)c3)CC2)C1 (configuration not stated)	0.1	1.2%	4.5	14.7%	-11.5%	-0.5
O=C(CSc1ccc(F)cc1)Nc1cccc(S(=O)(=O)N2CCOCC2)c1	-0.5	.	1.7	-2.9%	-12.7%	.
Cc1cc(C)c(C)c(S(=O)(=O)N2CCC(C(=O)NCC(c3ccccc3)N(C)C)CC2)c1C (configuration not stated)	1.5	.	8.2	6.2%	-3.5%	-0.1
CC1(C(=O)Nc2cccc3c2CCCC3)CCN1C(=O)CCc1ccc(Cl)cc1Cl (configuration not stated)	2.7	2.6%	89.7	.	.	.
Cc1cc(C)cc(C(=O)Nc2ccc(-c3cn4cccnc4n3)cc2)c1	3.1	3.9%	-9.0	.	.	.
CCOC(=O)c1cc(NC(=O)c2ccc(Cl)cc2)c(=O)n2c1oc1ccc(Cl)cc12	-0.2	0.8%	0.0	-3.8%	9.3%	0.0
O=C(NC12CC3CC(CC(C3)C1)C2)c1cc([N+](=O)[O-])ccc1N1CCOCC1	1.9	-2.0%	6.0	28.1%	?	2.4
CCOC(=O)c1ccc(NC(=O)CNC(=O)c2ccco2)cc1	-0.2	-5.6%	15.5	2.3%[15.4 µM]	-0.7%	-2.0
CCc1ccc(NC(=O)CSC2=Nc3ccccc3C3=NC(CCC(=O)NCCc4ccccc4)C(=O)N23)cc1 (configuration not stated)	1.2	-11.4%	-0.4	.	.	.
Cc1cccc(N=Nc2ccc(O)c3ncccc23)c1	4.8	-1.4%	-14.6	-18.4%	3.0%	.
CS(=O)(=O)N1CCN(C(=O)c2ccc(Cl)s2)CC1	-0.7	.	12.7	-3.4%[15.4 µM]	14.4%	1.8
O=C1Nc2ccccc2C1=Nc1ccc2[nH]c3ccccc3c2c1	1.8	?	8.9	?	-5.6%	.
CCOc1ccc(NC(=O)CN2CCN(S(=O)(=O)c3ccc(OC)cc3)CC2)cc1	0.9	-1.6%	7.3	.	.	.
COCCNC(=O)C(=O)NCC1OCCN1S(=O)(=O)c1ccc(C)cc1 (configuration not stated)	0.2	-0.5%	-12.3	26.9%	9.4%	.

Screening results deposited in PubChem BioAssay by National Center for Advancing Translational Sciences (NCATS).
